Screens (PubChem BioAssay)
TRPML1 blocker – qHTS for Inhibitors of the Human Mucolipin Transient Receptor Potential 1 (TRPML1); Mucolipin-1 (Homo sapiens), Q9GZU1; TRPML1-inducible cells, Ca2+ dye fluorescence, FDSS; stronger effect = lower value; inhibition of EC80 agonist-evoked calcium signal; activity change, negative = inhibition, % (test concentration not listed); hit rate 0.02% among 390,000; AID 624415, 2012; in the data active means activity change below about -50%; inconclusive means about -30% to -50%; inactive means above about -30%;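 note: stimulus is agonist 54-4 at its EC80 concentration; % is set by controls: 0 for no effect and ±100 for the full control effect; compound concentration not given in the record; the text of the record puts the active cut at -80%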
Target sequence (Q9GZU1 whole entry, looked up): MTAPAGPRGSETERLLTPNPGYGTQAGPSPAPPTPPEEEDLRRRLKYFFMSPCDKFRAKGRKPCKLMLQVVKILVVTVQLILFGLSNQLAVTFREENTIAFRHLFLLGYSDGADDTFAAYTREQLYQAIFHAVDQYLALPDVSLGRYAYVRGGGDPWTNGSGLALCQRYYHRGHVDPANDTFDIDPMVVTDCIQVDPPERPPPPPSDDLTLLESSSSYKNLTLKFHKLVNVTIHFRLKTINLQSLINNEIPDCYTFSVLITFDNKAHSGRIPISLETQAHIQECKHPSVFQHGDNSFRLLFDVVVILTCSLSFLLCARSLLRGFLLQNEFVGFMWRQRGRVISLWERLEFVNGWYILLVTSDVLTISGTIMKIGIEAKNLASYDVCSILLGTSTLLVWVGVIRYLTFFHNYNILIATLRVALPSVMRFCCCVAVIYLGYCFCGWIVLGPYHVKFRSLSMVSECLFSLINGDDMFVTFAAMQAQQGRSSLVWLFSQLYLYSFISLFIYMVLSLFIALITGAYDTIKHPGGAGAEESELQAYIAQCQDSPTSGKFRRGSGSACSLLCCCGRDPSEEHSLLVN
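Calcium fluorescence in TRPML1-DL cells induced overnight with Tet: a 110 s read after compound pin addition, then a 110 s antagonist read after challenge with 54-4 at 4 uM final (EC80).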
TRPML1 agonist – qHTS for Agonists of the Human Mucolipin Transient Receptor Potential 1 (TRPML1); TRPML1-expressing cells, Ca2+ dye fluorescence, FDSS; host cell line not named in the record; reference of the full effect not given here; AID 624414, 2012; hit rate 0.12% among 410,000; Mucolipin-1 (Homo sapiens), Q9GZU1; activation, % (test concentration not listed); in the data active = activation above about 50%; inconclusive = about 30% to 50%; inactive = below about 30%; note: 0% is about no effect; the text of the record puts the active cut at 80%
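Tet-induced TRPML1-DL cells, 1,500 per well, cultured overnight, were loaded with a no-wash Ca2+ dye for 45–90 min. Calcium fluorescence was recorded on the FDSS for 110 s after compound addition, before the EC80 agonist (4 uM 54-4) was added.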
gsp agonist – qHTS for Agonist of gsp, the Etiologic Mutation Responsible for Fibrous Dysplasia/McCune-Albright Syndrome: qHTS; gsp mutant cells, cAMP HTRF, 30 min; control for the full effect not named in the record; AID 624287, 2012; hit rate 0.13% among 340,000; Potency, µM (doses to about 76.9 µM), without a hit: at the highest dose activation (cAMP increase), most hits filed as activators; active = well fitted activation curve with a large enough effect; inconclusive = small, poorly fitted or top-dose-only effect, or another doubt; inactive = no such curve, though single readings can be large or run the other way; cell line not stated here;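 note: phosphodiesterase inhibitor Ro 20-1724 added with compounds to block cAMP breakdown; potency is the fitted concentration of half-maximal effect; nearly all actives have a fitted effect of over 60% in size; about a fifth of the inactives were tested at one dose only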
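Cells stably selected in G418 were plated at 2000/well, grown 16-24 hr, then given compounds in DMSO with the PDE inhibitor […] (300 uM solution added) for 30 min at 37C; cAMP was read by HTRF.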
Menin-MLL FL inh – qHTS Assay for Inhibitors Targeting the Menin-MLL Interaction in MLL Related Leukemias: Competition With Fluorescein Labeled MLL-derived Peptide. Fluorescence polarization, fluorescein-MLL peptide displacement from menin. FP activity change, % at 61.4 µM. 290,000 tested, under 10 active. AID 1766, 2009; inconclusive = falling polarisation curve, or a change in total fluorescence; inactive = total fluorescence flat and polarisation flat or rising; no compound was filed as active; the % refers to the polarisation; negative = inhibition;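 note: % of control where 0% means no effect; inhibitors lower the polarisation; unlabelled MLL peptide was the positive control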
ClpP mod – qHTS Assay for Activators of ClpP | ATP-dependent Clp protease proteolytic subunit (Bacillus subtilis (strain 168)), P80244 | purified B. subtilis ClpP, FRET peptide cleavage, 20 min | Potency, µM (highest dose often 57.5 µM), without a hit: at the highest dose activity change, negative = active | hit rate 1.9% among 340,000; active = well fitted falling curve with a large enough effect; inconclusive = small, poorly fitted or top-dose-only effect; inactive = no such curve, though single readings can be large or run the other way; note: potency is the fitted concentration of half-maximal effect; the source files actives as falling curves though it sought activators and does not explain the sign; nearly all actives have a fitted effect of over 65% in size; many hits overshoot -100%
Target sequence (P80244 whole entry, looked up): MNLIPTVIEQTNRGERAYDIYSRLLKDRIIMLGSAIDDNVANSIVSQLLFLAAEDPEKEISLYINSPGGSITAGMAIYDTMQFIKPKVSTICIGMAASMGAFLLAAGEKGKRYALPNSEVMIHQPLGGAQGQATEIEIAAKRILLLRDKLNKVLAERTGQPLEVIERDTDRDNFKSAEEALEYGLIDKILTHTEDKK
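Buffer: 100 mM Tris/HCl pH8, 100 mM KCl, 0.05% low protease BSA, 2.5% glycerol, 0.01% Tween-20. ClpP 10 microg/mL final; 20 min RT; delta FRET normalized to ADEP and DMSO controls.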
gsp antag – qHTS for Antagonists of gsp, the Etiologic Mutation Responsible for Fibrous Dysplasia/McCune-Albright Syndrome: qHTS. gsp-mutant cells, cAMP HTRF, 30 min; control for the full effect not named in the record. Potency, µM (series often up to 76.9 µM), for the others: at the top dose activity change, negative = inhibition, hits mostly inhibitors. hit rate 0.4% among 340,000; active = falling curve of any shape with a large fitted effect; inconclusive = falling curve, mostly with a smaller effect; inactive = flat or rising curve; cell line not stated here;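 note: intracellular cAMP measured with PDE inhibitor Ro 20-1724 present during compound exposure; potency is the fitted concentration of half-maximal effect; % is set by controls: 0 for no effect and ±100 for the full control effect; nearly all actives have a fitted effect of over 65% in size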
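HTRF cAMP read-out (cAMP-d2 plus anti-cAMP antibody-K in lysis buffer, 30 min RT). Before lysis, cells are exposed to compounds with […] for 30 min at 37C in DPBS containing Ca/Mg, BSA and Tween 20.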
Numbers without * were called inactive; ? = inconclusive; nt = no result given; [ ] = another dose, or the depositor's remark.

SMILES	TRPML1 blocker	TRPML1 agonist	gsp agonist	Menin-MLL FL inh	ClpP mod	gsp antag
Cc1sc2nc(SCC(=O)NCCO)n(C)c(=O)c2c1C	1	-0.6	?	5.3	3.1%	5%
C[C@@H]1CN([C@@H](C)CO)C(=O)CCCn2cc(nn2)CO[C@H]1CN(C)C(=O)c1cc(-c2ccccc2)on1	-11	-0.3	-22%	nt	0.8%	nt
NC(=O)C1(N2CCCCC2)CCN(C(=O)CSc2nc3ccccc3[nH]2)CC1	-4	0.5	1%	-2.7	-1.6%	2%
COc1ccc(N2CCN(CC(=O)NC(=O)NCc3ccccc3)CC2)cc1	2	0.4	10%	nt	-3.8%	11%
COc1ccc(-c2cc(C(=O)N3CCN(c4ccccc4O)CC3)c3ccccc3n2)cc1	1	-0.9	-6%	nt	3.9%	-10%
COc1ccc(S(=O)(=O)N2CCN(c3ccccc3OC)CC2)cc1OC	-11	-0.8	-6%	1.2	-2.3%	-24%
COc1ccccc1NC(=O)N(C)C[C@H]1OCc2cnnn2CCCC(=O)N([C@H](C)CO)C[C@@H]1C	-6	0.7	16%	nt	-2.4%	nt
O=C(NC(=S)NCCC1=CCCCC1)c1ccco1	23	1.7	2%	-1.4	nt	-6%
CCCSc1nc2c(c(=O)[nH]1)C(c1ccc(O)c(OCC)c1)CC(=O)N2 (configuration not stated)	9	-0.4	nt	nt	-3.9%	nt
C/C(O)=C\c1nc(=O)c2c(C)cc(C)nc2n1-c1ccccc1	3	-0.1	6%	-3.4	-0.4%	16%
O=S1(=O)c2c(F)cccc2O[C@@H](COCc2ccccc2)CN1CCc1ccc(F)cc1	-12	1.1	nt	nt	2.3%	4%
CC1CCCCN1Cc1c(O)ccc2c(=O)c(-c3ccc(Br)cc3)coc12 (configuration not stated)	18	-0.3	28%	1.2	4.1%	-6%
COC(=O)c1ccc(NC(=O)C2CCCN(S(C)(=O)=O)C2)cc1 (configuration not stated)	-13	0.9	16%	-1.9	nt	1%
CC(NC(=O)c1cc(COc2c(F)cccc2F)on1)c1cnn(-c2ccccc2)c1 (configuration not stated)	12	1.6	-2%	-0.7	1.3%	-1%
CN(C)c1nc(Cl)nc(NCCOc2ccccc2)n1	8	0.5	-30%[inhibitor]	6.0	-4.9%	3%
CN(CC(=O)Nc1ccc(OC(F)(F)F)cc1)C(=O)Cn1c(=O)cnc2ccccc21	-10	0.0	-21%	nt	-3.3%	1%
COc1ccc(NC(=S)N/C(=N/S(=O)(=O)c2ccc(C)cc2)c2ccccc2)cc1	5	1.9	-43%[inhibitor]	2.5	2.0%	3%
CCN(CC)c1ccc(S(=O)(=O)Nc2cc(Cl)ccc2Cl)cc1NC(=S)NC(=O)C1CCCC1	13	1.3	?	2.8	-12%	10%
Cc1c(NC(=S)NC(=O)C2CCCCC2)c(=O)n(-c2ccccc2)n1C	8	-1.2	-14%	5.0	3.6%	2%
Oc1ccc(Cl)cc1CNc1nccs1	9	0.9	-55%[inhibitor]	-2.7	nt	-12%
CC(C)/C=N/Nc1nc2c(c(=O)n(C)c(=O)n2C)n1C	-3	0.0	3%[15.4 µM]	0.6	-1.1%	-20%
CCCNC(=O)C1(C)CCN(Cc2cc(C(F)(F)F)ccc2Cl)C1 (configuration not stated)	45	-0.2	nt	nt	-0.2%	nt
CC1(C)SC2C(NC(=O)C3(N)CCCCC3)C(=O)N2C1C(=O)O (configuration not stated)	29	0.7	7%	nt	nt	6%
C/C(=N\NC(=O)c1nn(C)cc1Br)c1ccncc1	6	-0.6	-36%[inhibitor]	nt	1.7%	-2%
Cc1cc(C)n2c(Nc3ccccc3)c(-c3ccccc3)nc2n1	-23	-0.9	nt	nt	-0.5%	nt
O=S(=O)(CC(CN1CCCCC1)N1CCCCC1)c1ccccc1 (configuration not stated)	2	-0.4	-16%	-3.9	1.2%	29%
COc1cc(NC(=O)COc2ccc3c(C)cc(=O)oc3c2C)cc(OC)c1OC	8	0.1	-6%	1.1	-2.8%	6%
CCN1CCN(S(=O)(=O)c2ccc(OC)c(NC(=O)c3ccccc3F)c2)CC1	2	0.0	-15%	nt	-1.6%	2%
CN(C)CCn1c2c(c(SCC(=O)Nc3cccc4ccccc34)nc1=O)CCC2	-11	-1.0	18%[15.4 µM]	nt	nt	3%
Cc1ccc(-c2nc3sc(CCNC(=O)c4ccc(Br)o4)c(C)n3n2)cc1	-3	0.9	nt	nt	0.3%	nt
O=C(CCNC(=O)C1CCN(S(=O)(=O)c2ccc(F)cc2)CC1)Nc1nccs1	45	0.5	15%	nt	-1.9%	6%
CN1CCN(c2ccc(C(=O)c3ccccc3)cc2[N+](=O)[O-])CC1	14	1.0	7%	2.5	-0.5%	4%
CC(C)(O)C#Cc1ccc(C(=O)Nc2ccc3c(c2)OCO3)s1	12	-0.9	18%	-1.2	1.0%	3%
CCc1ccccc1C1C(=O)c2ccccc2C1=O	8	0.4	19%[15.4 µM]	nt	nt	3%
CCOC(=O)c1c(NC(=O)COC(=O)c2ccc(Cl)nc2)sc(C(=O)N(C)C)c1C	17	0.6	-26%	nt	-5.9%	-15%
CCOC(=O)C1=C(C)N=C2SCCC(=O)N2C1c1cccs1 (configuration not stated)	13	2.6	?	1.7	0.4%	6%
COc1ccc(NC(=O)C2CCN(S(=O)(=O)c3c(C)noc3/C=C/c3cccs3)CC2)cc1	-1	0.7	nt	nt	-5.5%	nt
CCOC(=O)CNC(=O)C(CO)NC(=O)OCc1ccccc1 (configuration not stated)	-4	-0.3	12%	3.9	-6.2%	5%
COc1ccc(CC(O)CO)cc1OCc1ccccc1 (configuration not stated)	-1	-0.2	?	nt	0.9%	nt
CCc1ccc(NC(=O)CSc2cn(CC(=O)N3CCCC3)c3ccccc23)cc1	26	2.6	nt	nt	-1.4%	nt
CCC(CC)NC(=O)Cn1c(C(C)NC(C)=O)nc2ccccc21 (configuration not stated)	nt	nt	?	3.0	0.3%	13%
COc1ccc(-c2nc(CS(=O)CC(=O)NCc3ccccc3)c(C)o2)cc1OC (configuration not stated)	-6	-0.6	23%	nt	3.6%	5%
COc1ccc(OC)c(C(c2c(C)[nH][nH]c2=O)c2c(C)[nH][nH]c2=O)c1	25	0.1	1%[15.4 µM]	nt	nt	14%
COc1cccc(-n2nnnc2SCC(=O)Nc2ccccc2OC)c1	-2	0.9	-12%	-2.8	-1.7%	-17%
COc1ccc(/C=C(/NC(=O)c2ccc(OC)c(OC)c2)C(=O)NCCCn2ccnc2)cc1	-6	-0.5	?	-0.7	nt	9%
COc1ccc2c(c1)N(C(=O)CSc1n[nH]c(C)n1)C(C)(C)C=C2C	-2	-1.0	15%	2.0	0.6%	-2%
Cn1c(C(=O)OC(C(=O)NC2CCCC2)c2ccncc2)cc2sccc21 (configuration not stated)	-11	1.5	2%	5.3	-0.2%	5%
O=C(c1cccc(C(F)(F)F)c1)N1CCN(S(=O)(=O)c2ccc(Cl)s2)CC1	5	1.7	-15%	nt	-1.8%	6%
Cc1cccc(/C=N/NC(=O)c2cc3c(s2)-c2ccccc2CC3)c1	-11	0.3	-46%[inhibitor]	7.4	28µM*	-5%
COc1ccc(N2CCN(c3ncnc4onc(-c5ccc(F)cc5)c34)CC2)cc1	-3	-0.6	nt	nt	2.8%	nt
CCCCC1CCC(C(=O)N(CC(C)C)c2c(N)n(CCCC)c(=O)[nH]c2=O)CC1 (configuration not stated)	11	-0.2	8%[15.4 µM]	nt	-4.6%	2%
O=c1ccc(-c2ccc(S(=O)(=O)N3CCN(c4cccc(Cl)c4)CC3)o2)n[nH]1	-11	-0.5	?	nt	-8.2%	8%
O=C(Nc1cc(S(=O)(=O)N2CCOCC2)ccc1Cl)C1CCC1	16	-0.5	16%	nt	1.4%	8%
CCOC(=O)c1c(C2COc3ccccc3O2)csc1NC(=O)c1ccco1 (configuration not stated)	-3	-0.5	-34%[inhibitor]	3.1	-17%	-14%
CCC(C)[C@H](N)c1cn([C@@H](CCCCN)C(=O)N2CCNCC2)nn1 (some centres not stated)	-1	-0.5	-14%	-7.6	-0.1%	9%
CCn1c(=O)c2cc(C(=O)Nc3ccc(OC)cc3OC)sc2c2ccccc21	nt	nt	11%	4.8	-0.6%	11%
CSCC[C@H](NC(=O)COc1cc2c(c3oc(=O)c(C)c(C)c13)CCC(C)(C)O2)C(=O)O	9	-0.6	30%	2.6	nt	2%
COc1cccc(CCNc2ncnc3c2nnn3C)c1	-4	1.5	nt	nt	-2.4%	nt
CCOc1cc(/C=N/N=C2/NC(=O)C(CC(=O)O)S2)ccc1OCc1ccccc1Cl (configuration not stated)	-3	-0.7	-3%	-6.8	nt	-4%
O=C1CC(c2cccs2)CC(O)=C1C=NCCN1CCNCC1 (configuration not stated)	-9	-0.4	-28%	27	0.7%	2%

The final 3 records of the section above open the next one.
SMILES	TRPML1 blocker	TRPML1 agonist	gsp agonist	Menin-MLL FL inh	ClpP mod	gsp antag
COc1cccc(CCNc2ncnc3c2nnn3C)c1	-4	1.5	nt	nt	-2.4%	nt
CCOc1cc(/C=N/N=C2/NC(=O)C(CC(=O)O)S2)ccc1OCc1ccccc1Cl (configuration not stated)	-3	-0.7	-3%	-6.8	nt	-4%
O=C1CC(c2cccs2)CC(O)=C1C=NCCN1CCNCC1 (configuration not stated)	-9	-0.4	-28%	27	0.7%	2%
CCCN(C(=O)COC(=O)CCC(=O)c1ccccc1)c1c(N)n(Cc2ccccc2)c(=O)[nH]c1=O	0	0.0	-32%[inhibitor]	nt	-1.7%	nt
CN(C(=O)COC(=O)c1cccc(S(=O)(=O)N2CCCCCC2)c1)c1ccccc1	-3	-0.4	-69%[inhibitor]	nt	1.8%	nt
Oc1ccc(C2=NN(c3ccccc3)C(c3ccc(F)cc3)C2)cc1 (configuration not stated)	13	-0.9	?	1.1	nt	-8%
Cc1cscc1NC(=O)/C=C/C(=O)O	3	-0.3	0%[15.4 µM]	3.5	nt	-16%
CCN1CCN(c2ccc(S(=O)(=O)N3CCOCC3)cc2NC(=O)c2ccc(C)cc2C)CC1	42	2.6	14%	nt	-2.1%	2%
CCOC(=O)c1cn2nc(Oc3ccc(NC(C)=O)cc3)ccc2n1	7	0.7	19%	7.6	nt	3%
